# Choline anaer gr: inhibitors of anaerobic choline-dependent gram-negative bacterial growth. Gram-negative bacterium anaerobic choline minimal medium, absorbance growth; stronger effect = lower value; many inactives read as strong as hits in the columns shown. calls only. actives 0.2% (n = 55,000). AID 1963822;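 active = growth z-score on choline under -2 at 7 or 20 h with little or no fall on glycerol, limits in tiers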;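 also: stock transfer was 300 nL into about 50 µL; the organism is E. coli; final concentration not given here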
# Choline anaer gr early: also measured in Choline anaer gr; calls as there; z-score; measured here: choline growth z-score, timepoint 1;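 score of optical density at 7 h as mean of two plates; lower means less growth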
# * marks the source's active call; other numbers are inactive results; i = inactive; + = active, no number; & = joins results of further samples.
SMILES,Choline anaer gr,Choline anaer gr early
COC(=O)CNC(=O)NCCCn1c(C(F)(F)F)nc2cccnc21,i,-0.9
CCCN1CCN(C(=O)C(C)N2C(=O)CCCc3ccccc32)CC1 (stereo unspecified),i,-0.74
CCOC(=O)C1CCN(C(=O)c2cccc(C3CCCN(C(=O)NC)C3)c2)CC1 (stereo unspecified),i,0.7
O=C(CN1N=C(c2ccc(Cl)cc2)CCC1=O)NCCCN1CCC(Cc2ccccc2)CC1,i,-0.28
Fc1ccc(-c2nnc(C3CCCO3)o2)cc1 (stereo unspecified),i,-0.96
Nc1ccccc1S(N)(=O)=O,i,0.66
CC(=O)N1CCC(C(=O)NCc2ccccc2)(N(C(=O)c2ccc(C)cc2)c2cc(F)ccc2F)CC1,i,1.1
C#CCn1cnc2c(cnn2-c2ccccc2)c1=O,i,-0.74
CCOC(=O)c1cn[nH]c1S(=O)(=O)Nc1cc(C)ccc1C,i,-0.45
Cc1nn2c3c(nnc2c1-c1ccccc1)C(=O)CC(C)C3 (stereo unspecified),i,0.39
CN1CCCn2nc(C3CCN(C(=O)NCc4ccco4)CC3)cc2C1=O,i,-1.1
O=C(Cn1ccc2cc(S(=O)(=O)N3CCCC3)ccc21)NCc1ccccc1,i,0.07
CCC(=O)OCN1C(=O)C=CC1=O,i,0.26
CCCCNC(=O)c1cccc(-c2nccc(Oc3ccc(OC)cc3)n2)c1,i,0.09
COc1ccc(-c2nc3sc(CCNC(=O)c4cc(OC)cc(OC)c4)c(C)n3n2)cc1,i,-0.24
O=C(c1cnccn1)N1CCC(Nc2ncnc3c2CCC3)C1 (stereo unspecified),i,0.88
O=C(CCN(CCCN1CCOCC1)C(=O)c1ccc(Br)cc1)N1CCNCC1,i,-1.7
COc1ccnc2c1c(=O)n(CC(=O)N1CCC(C)CC1)c(=O)n2C,i,0.42
Cc1c(C(=O)N2CCCC2)c(S(=O)(=O)NCC2CCCO2)c(C)n1C (stereo unspecified),i,-0.05
O=C(NC(Cc1cc(=O)[nH]c2ccccc12)C(=O)O)c1ccc(Cl)cc1 (stereo unspecified),i,0.69&-0.2
Cc1cc2c(cc1C)N(CC(=O)NCc1cccs1)C(=O)C1CCCC1=N2 (stereo unspecified),i,0.7
Cc1csc(-c2cc(S(=O)(=O)Nc3ccc(Cl)cc3F)c(C)s2)n1,i,0.36
CCOC(=O)CS(=O)(=O)c1cc2c(cc1NC(C)=O)n(C)c(=O)c(=O)n2C,i,1.2
CCCOc1nc2cc(C)c(C)cc2[nH]c1=O,i,0.1
CNc1cc(C)nc2c(-c3ccc(Cl)cc3)cnn12,i,-0.86
# (more compounds)
SMILES,Choline anaer gr,Choline anaer gr early
CC1CCC(NC(=O)C2CCCN(S(=O)(=O)c3cc(-c4noc(C5CCC5)n4)cs3)C2)CC1 (stereo unspecified),i,-1.5
O=C(NCc1c(-c2ccccc2)nc2n1CCS2)c1cccc(Cl)c1,i,0.35
Cc1nc2nc[nH]n2c(=O)c1NS(=O)(=O)c1ccc(C(C)(C)C)cc1,i,-0.22
O=S(=O)(c1ccc2c(c1)CCC2)N1CCOc2ccc(COCc3ccc(Cl)cc3)cc2C1,i,2.4
O=C1C(Nc2ccccc2)=CC(=O)c2ncccc21,i,-2.6
CC1CCc2[nH]nc(C(=O)N3CCN(C(C)C)CC3)c2C1 (stereo unspecified),i,-0.11
CN(C)c1ncncc1N1CCC(C(=O)NCCN2CCCC2)CC1,i,0.94
O=C(CN1CCN(Cc2ccccc2Cl)S1(=O)=O)Nc1ccccc1F,i,-1.1
O=C(NCc1ccccn1)C1CCN(c2ncnc3c2sc2ncccc23)CC1,i,0.58
Cc1ccc(-c2noc(C3CC3)n2)cc1S(=O)(=O)N1CCC(C(=O)Nc2ncccc2C)CC1,i,-0.46
c1cc(-c2nnc3sc(-c4ccc5c(c4)OCCCO5)nn23)ccn1,i,-1.6
Cc1ccc(NC(=O)C2Oc3ccccc3NC2=O)cc1 (stereo unspecified),i,0.49
Cc1ccc2c(=O)c(-c3nc(-c4cccc(F)c4)no3)cn(CC(=O)NCc3ccccc3)c2n1,i,-0.06
O=C1CCc2cc(S(=O)(=O)N3CCN(S(=O)(=O)c4ccc(F)cc4)CC3)cc3c2N1CC3,i,-0.74
CC(=O)Nc1nc(N2CCC(C(=O)NCc3ccc(F)cc3)CC2)sc1C(=O)N1CCCC1,i,-0.26
Cc1cccc(C)c1NC(=O)c1cc(CN2CCCC2)on1,i,-0.03
COc1ccccc1-c1cc2c(SCC(=O)Nc3ccc(C)cc3)nccn2n1,i,-1.1
CN1CCN(c2ccc(Nc3c4ccccc4nc4ccccc34)cc2)CC1,i,-5.6
Cc1cc(C)cc(NC(=O)N2CCN(Cc3cc(=O)n4nc(-c5ccc(F)cc5)sc4n3)CC2)c1,i,0.77
O=C(Nc1cnc(N2CCCC2)nc1)C1CC1,i,1.3
COc1ccc(NS(=O)(=O)c2cc(-c3cc(C(F)(F)F)on3)sc2C)cc1,i,0.09
COc1cccc(NC(=O)Nc2nnc(-c3cc4ccccc4o3)o2)c1,i,-0.05
CCOc1ccc(CNC(=O)c2ccc(Cl)c(-n3c(C)nc4cccnc43)c2)cc1,i,0.25
Cc1ccccc1C(=O)N1CCN(c2nc3cc(Br)ccc3n3cccc23)CC1,i,-0.22
CC(C)c1ccc(-c2noc(SCC(=O)NCC3CCCO3)n2)cc1 (stereo unspecified),+,-1.4*

# The list goes on (four carried over from the part before).
SMILES,Choline anaer gr,Choline anaer gr early
COc1cccc(NC(=O)Nc2nnc(-c3cc4ccccc4o3)o2)c1,i,-0.05
CCOc1ccc(CNC(=O)c2ccc(Cl)c(-n3c(C)nc4cccnc43)c2)cc1,i,0.25
Cc1ccccc1C(=O)N1CCN(c2nc3cc(Br)ccc3n3cccc23)CC1,i,-0.22
CC(C)c1ccc(-c2noc(SCC(=O)NCC3CCCO3)n2)cc1 (stereo unspecified),+,-1.4*
CCN1CCN(CCCNC(=O)c2cc(=O)n(CC)c3c2c(=O)n(CC)c(=O)n3C)CC1,i,0.48
CC1=NS(=O)(=O)c2cc(S(=O)(=O)N3CCN(c4cccc(Cl)c4)CC3)ccc2N1,i,-0.99
COc1ccc(NC(=O)c2cc3nc(-c4ccccc4)cc(C(F)(F)F)n3n2)c(OC)c1,i,-0.07
COc1ccccc1-n1nnc2c(sc3nc(C)ccc32)c1=O,i,-0.63
CCC(C(=O)NCc1cc(OC)ccc1OC)n1nc(C)c2sc3ccccc3c2c1=O (stereo unspecified),i,1.1
CC1(C(=O)NC2CCCC2)Cn2c(cc3ccsc32)C(=O)N1c1ccc2c(c1)OCCO2 (stereo unspecified),i,-0.01
O=C(NCCN1CCC(Cc2ccccc2)CC1)c1cc2c(s1)-c1ccccc1OC2,i,-1.1
CN(C)S(=O)(=O)c1cc(-c2nnc(-c3ccccc3)o2)ccc1F,i,-0.16
Cc1nn(-c2ccccc2)c(N2CCC(C(=O)N(C)Cc3ccccc3)CC2)c1-n1c(C)ccc1C,i,0.46
COC(=O)c1ccc(N2CCC(C)CC2)c(NC(=O)Nc2ccc(Cl)cc2)c1,i,-0.28
CC1CCCN(C(=O)C2CC(=O)N(c3ccc4c(c3)CCN4C(=O)C3CC3)C2)C1 (stereo unspecified),i,0.07
C#CCn1c(C2CCCN2C(C)=O)nc2ccccc21 (stereo unspecified),i,-0.89
CC(=O)N1c2ccccc2NC2=C(C(=O)CC(c3ccccc3F)C2)C1c1ccccc1 (stereo unspecified),i,-0.16
CCN1CCCn2nc(C3CCN(S(=O)(=O)c4cnc[nH]4)CC3)cc2C1=O,i,-0.17
CCn1c(Cn2cccn2)nc2cc(NC(=O)c3ccccc3OC)ccc21,i,0.23
O=C(NC1CCN(Cc2ccccc2)CC1)c1ccc(Cn2c(=O)c(=O)[nH]c3cccnc32)cc1,i,-0.13
Cc1ccc(NC(=O)c2cn(-c3cc(-c4noc(C)n4)ccc3C)nc2C)c(Br)c1,i,1.9
Cc1ncc(-c2ccc(C)c(S(=O)(=O)Nc3ccc(S(N)(=O)=O)cc3)c2)o1,i,1.1
CCSc1nc2ccc(NS(=O)(=O)c3ccc(F)cc3F)cc2s1,i,-1
CC1(C)C(=O)N(CC(=O)Nc2ccccn2)c2ccccc21,i,-0.35
CC(C)Sc1nnc2n1CCN2c1ccccc1,i,-1.1
CC(C)n1cnnc1C1CCCN(C(=O)c2ccsc2)C1 (stereo unspecified),i,0.1
Cn1nc(C(=O)NCc2ccc(F)cc2)c2c1CCN(S(=O)(=O)c1cccc3nsnc13)C2,i,-0.34
Cc1oc(-c2ccccc2)nc1Cn1nnc(-c2nc(-c3cccc(Br)c3)no2)c1C,i,1
N#Cc1cc2c(OCC(O)CN3CCN(C(c4ccccc4)c4ccccc4)CC3)cccc2[nH]1 (stereo unspecified),i,0.84

# One compound at a time, as listed above:
# Listed for Cc1ncc(-c2ccc(C)c(S(=O)(=O)Nc3ccc(S(N)(=O)=O)cc3)c2)o1 → Choline anaer gr: i; Choline anaer gr early: 1.1
# Listed for CCSc1nc2ccc(NS(=O)(=O)c3ccc(F)cc3F)cc2s1 → Choline anaer gr: i; Choline anaer gr early: -1

# Further results:
SMILES,Choline anaer gr,Choline anaer gr early
Cc1c(C)n(C)c2ccc(C(=O)NCc3ccc(Cl)cc3)cc12,i,0.22
Cc1ccc(Oc2ccc(-c3noc(-c4ccnn4C)n3)cc2)cc1,i,0.75
CCCS(=O)(=O)c1ncc(Cl)c(C(=O)Nc2ccc(S(N)(=O)=O)cc2)n1,i,-0.04
O=C(NCc1ccc(F)cc1)c1cc(-c2ccc(F)cc2)nc2n[nH]c(-c3ccccc3)c12,i,0.98
O=C(NCc1ccccc1Cl)c1nnc(-c2ccc(S(=O)(=O)N3CCCC3)cc2)o1,i,-0.34
O=S(=O)(NCCn1c(-c2ccncc2)nc2cccnc21)c1cccc(Cl)c1,i,-0.27
O=C(c1ccc(N2CC=C(c3ccccc3)CC2)nn1)N1CCc2ccccc21,i,1.7
CCc1ccccc1NC(=O)CN(C)S(=O)(=O)c1ccc2nc(-c3ccccc3)[nH]c2c1,i,0.37
CC(C)(C)C1CCc2c(sc3nc(CCC(=O)N4CCN(c5ccccn5)CC4)[nH]c(=O)c23)C1 (stereo unspecified),i,0.33
O=C1c2c(O)cc(O)cc2OC(c2ccc(O)c(O)c2)C1O (stereo unspecified),i,-2.2&0.73&0.71&0.46
CCN(c1ccccc1)c1cc(NC)[n+](C)c(C)n1,i,-1.2
COc1ccc(-n2ncc(C(=O)O)c2-c2ccncc2)cc1,i,0.96
COc1ccccc1C1CC(=O)Nc2c1cnn2-c1nc2ccccc2s1 (stereo unspecified),i,0.74
CCC(=O)Nc1cccc(-c2noc(C3CCCN(C(=O)c4cccc(C)c4)C3)n2)c1 (stereo unspecified),i,0.86
Cc1cccc(C(=O)Nc2nnc(-c3cc4ccccc4o3)o2)c1,i,0.27
Cc1c(C)n(-c2ccccc2)c2ncn(CCC(=O)NCCC3=CCCCC3)c(=O)c12,i,-0.18
O=C1CC(c2ccc3c(c2)OCO3)c2c(-c3ccc(Cl)cc3)nn(-c3ccccc3)c2N1 (stereo unspecified),i,-0.35
CCCCNC(=O)CN1CCN(C(=O)c2ccc(N3CCNCC3)c(NS(C)(=O)=O)c2)CC1,i,0.09
Nc1ncnc2c1ncn2C1CCCO1 (stereo unspecified),i,0.3&0.38&-0.27
CC1CCC(NC(=O)c2cccn3c(=O)c4cc(Cl)ccc4nc23)CC1 (stereo unspecified),i,0.14
COC(=O)c1c(C)sc(-c2c(-c3cc4ccccc4o3)[nH]c3[nH]c(=O)[nH]c(=O)c23)c1O,i,1.1
CCc1onc(C)c1C1CCCN1Cc1ccc(C)cc1 (stereo unspecified),i,-1.2
Cc1ccc(CN2c3ccccc3OCC2CC(=O)Nc2nccs2)cc1 (stereo unspecified),i,1.1
CNC(=O)c1c(NC(=O)c2ccc(S(=O)(=O)N(C)C)cc2)sc2c1CCC2,i,-0.62
O=C(NCCn1c(-c2ccncc2)nc2cccnc21)Nc1ccc(Cl)cc1,i,-0.41

# Arranged by SMILES length (low to high): four of the compounds above
SMILES,Choline anaer gr,Choline anaer gr early
Nc1ncnc2c1ncn2C1CCCO1 (stereo unspecified),i,0.3&0.38&-0.27
COc1ccc(-n2ncc(C(=O)O)c2-c2ccncc2)cc1,i,0.96
CC1CCC(NC(=O)c2cccn3c(=O)c4cc(Cl)ccc4nc23)CC1 (stereo unspecified),i,0.14
CNC(=O)c1c(NC(=O)c2ccc(S(=O)(=O)N(C)C)cc2)sc2c1CCC2,i,-0.62

# Later entries
SMILES,Choline anaer gr,Choline anaer gr early
Cc1nc2nc(CN(C(=O)C(C)C)c3ccccc3)nn2c(C)c1Cl,i,-0.11
O=C(c1cc(-c2ccccc2)nc2ccccc12)N1CCN(c2ccc(F)cc2)CC1,i,0.43
COc1ccc(CN=C2Nc3ccccc3NC23CCCCCC3)cc1,i,-0.89
Cc1ccc2c(=O)cc(C(=O)Nc3ccc(F)cc3)oc2c1,i,-0.65
CC(C)c1ccc(NC(=O)Cn2nnc(C(=O)Nc3cccc(F)c3)c2N)cc1,i,-0.36
O=C(COc1ncnc2onc(-c3ccccc3)c12)NCc1ccccc1,i,0.18
COc1cccc2c1C(=O)c1c(O)c3c(c(O)c1C2=O)C[C@@](O)(C(=O)CO)CC3OC1CC(N)C(O)C(C)O1 (stereo partly specified),i,-0.23&0.72
Nn1nnc2ccccc21,i,0.33
CCN(CC)C(=O)[C@]1(c2ccccc2)CC1CN (stereo partly specified),i,0.26&0.53
Cc1ccc(OCC(=O)N2CCN(c3nc4ccccc4cc3-c3noc(C)n3)CC2)cc1,i,0.44
COc1ccc(OC)c(NC(=O)Cn2c(=O)c3c(OC)ccnc3n(C)c2=O)c1,i,0.32
O=C1Nc2ccccc2Oc2ccc(S(=O)(=O)N3CCc4ccccc43)cc21,i,-1.1

# Bioassay records deposited in PubChem by ICCB-Longwood Screening Facility, Harvard Medical School.

# These rows are one share of the data; the hit share may differ from the screen's.
